Vif A3G: HIV-1 Vif–A3G interaction blockers – biochemical, TR-FRET, GST-Vif 1-94, biotin-A3G peptide, dose response retest, primary screen (AID 1117319). TR-FRET GST-Vif / biotin-A3G peptide binding; higher % means a stronger effect; test concentration not given here; strong numbers were not always called active. one-dose inhibition, %; IC50 in µM for titrated hits. actives 0.57% (n = 260,000);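 active means above the screen mean plus three standard deviations and confirmed in dose response; inconclusive means results disagree or hit not tested in dose response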;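 further: Vif residues 1-94 fused to GST binding biotinylated APOBEC3G peptide 110-148; 0% = full assay without inhibitor and 100% = GST in place of GST-Vif; retest series ran down from 100 µM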
LANA-H2A inh: blocks KSHV LANA binding to histone H2A/H2B | Q9QR71 | cell-free LANA-H2A/H2B peptide, fluorescence polarization | inhibition, % (test concentration not listed) | actives 0.6% (n = 320,000) | AID 2629; in the data active means inhibition mostly above about 10%, no sharp cut-off; inactive means mostly below about 6.7%;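 further: stock transfer was 7.5 nL into about 10 µL; 0% = median of vehicle wells and 100% = median of positive control wells; one replicate is shown; the record names a cut of 25% in any replicate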
Beta2AR agonist: agonists of human beta-2 adrenergic receptor inducing internalization. Am2.2-beta2AR cells, FAP receptor internalization, flow cytometry; reference of the scale not given here. response, % (no concentration beside the values). actives 0.43% (n = 340,000);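 active means response above a set limit, near 3 SD of response in nonfluorescent compounds, cut at about 42% in these data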;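 further: stock transfer was 100 nL into about 11 µL; a reference agonist was the positive control; negative values mostly stem from fluorescent compounds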
Target sequence (P07550 whole entry, looked up): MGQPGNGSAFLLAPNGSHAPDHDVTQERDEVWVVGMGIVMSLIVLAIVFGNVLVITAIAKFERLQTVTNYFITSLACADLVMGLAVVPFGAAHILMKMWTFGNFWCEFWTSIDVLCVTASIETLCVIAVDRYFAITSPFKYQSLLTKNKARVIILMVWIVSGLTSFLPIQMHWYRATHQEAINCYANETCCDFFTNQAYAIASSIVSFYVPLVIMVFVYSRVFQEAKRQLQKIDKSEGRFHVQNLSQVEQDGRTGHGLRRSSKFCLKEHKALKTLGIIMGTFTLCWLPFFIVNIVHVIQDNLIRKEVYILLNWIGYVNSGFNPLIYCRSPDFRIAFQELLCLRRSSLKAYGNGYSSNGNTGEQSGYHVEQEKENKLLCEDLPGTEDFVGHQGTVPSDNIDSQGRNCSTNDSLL
ALR H2O2 inh: blocks human ALR sulfhydryl oxidase activity; actives 3.8% (n = 290,000); purified ALR, DTT oxidation, H2O2 HRP-luminol luminescence; inhibition, % (no concentration beside the values); AID 485317;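 active means mean and each replicate at 75% or more; inconclusive means only one of the two met; inactive means neither met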;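 further: stock transfer was 7.5 nL into about 7.5 µL; 0% = neutral wells and 100% = wells with inactivated enzyme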
RanGTP-Imp inh: inhibitors of RanGTP-importin-beta interaction, primary screen, biochemical, FRET, CFP-Ran, YFP-importin-beta, homogeneous | cell-free CFP-Ran/YFP-importin-beta FRET ratio | actives 1.1% (n = 300,000) | inhibition, % (no concentration beside the values);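 active means most replicates above 15%; inconclusive means exactly half above 15%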;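 further: 0% = DMSO wells and 100% = Ran loaded with GDP instead of GTP; wells of about 40 µL received 100 nL stock; the first replicate is given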
HNF4A DNA FP: change in binding of human HNF4 alpha to DNA. actives 0.3% (n = 360,000). activity change, % at 10 µM. HNF4a-FITC DNA binding, fluorescence polarization, 1 h. AID 1224865. P41235; in the data active means activity change above about 30%, passing the limit was not always enough;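 further: controls were the assay level and a saturating level of protein; the project sought stronger binding though the title names inhibitors; some compounds called inactive have numbers as strong as hits; positive values seem to mean higher polarization but the record does not say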
Target sequence (P41235 whole entry, looked up): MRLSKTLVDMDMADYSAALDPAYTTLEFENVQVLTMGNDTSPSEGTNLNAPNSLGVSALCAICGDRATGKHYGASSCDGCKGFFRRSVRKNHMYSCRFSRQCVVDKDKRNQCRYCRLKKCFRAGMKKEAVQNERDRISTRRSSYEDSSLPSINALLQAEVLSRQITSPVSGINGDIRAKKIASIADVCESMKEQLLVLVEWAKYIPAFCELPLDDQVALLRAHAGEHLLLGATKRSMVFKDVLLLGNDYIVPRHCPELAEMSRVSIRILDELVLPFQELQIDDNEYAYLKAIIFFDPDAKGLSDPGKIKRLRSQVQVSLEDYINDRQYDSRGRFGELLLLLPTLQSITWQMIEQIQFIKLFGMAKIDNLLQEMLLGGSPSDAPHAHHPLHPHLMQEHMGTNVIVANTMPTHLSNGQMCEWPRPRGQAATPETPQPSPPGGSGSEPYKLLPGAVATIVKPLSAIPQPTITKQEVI
Calb FLC: affects C. albicans growth with fluconazole; actives 0.57% (n = 300,000); growth inhibition, % (no concentration beside the values); C. albicans CaCi-2 (fluconazole-resistant clinical isolate) + fluconazole, Alamar Blue growth, 48 h; AID 1979;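 active means most replicates above 75%; inconclusive means exactly half above 75%; inactive means most below 75%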;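 further: all wells also contain fluconazole at 8 µg/ml as a sub-toxic cotreatment; 0% = median of DMSO wells and 100% = median of geldanamycin control wells; wells of about 8 µL received 7.5 nL stock; the first replicate is given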
Active calls of the source: *; ? = inconclusive; · = not tested or not shown.

Values run as follows: Vif A3G, LANA-H2A inh, Beta2AR agonist, ALR H2O2 inh, RanGTP-Imp inh, HNF4A DNA FP, Calb FLC
- CCC(=O)N(CCc1ccc(S(N)(=O)=O)cc1)C1CC(=O)N(c2ccc(OC)cc2)C1=O (centres undefined)
 : -5%, -5.9, 3, -2, 2.2, -2.0, -1
- COc1oc(-c2ccccc2C)nc1C(F)(F)F
 : 0%, 2.0, 8, -7, -0.3, -0.9, 18
- C/C(=N\NC(=O)C(=O)Nc1cc(C)ccc1C)c1ccncc1
 : 4%, 1.4, 7, -7, 2.9, 4.1, 7
- O=c1oc2cc([N+](=O)[O-])ccc2nc1/C=C(O)/C=C/c1ccccc1
 : ·, -0.8, ·, 49, -2.1, ·, 0
- CCOc1ccc(S(=O)(=O)N(C)c2ccc(OCC(=O)OCc3c(C)noc3C)cc2)cc1
 : -1%, -0.2, 4, -14, 9.3, -1.2, 2
- CCCOc1ccc(/C=C/C(=O)NCc2ccccc2)cc1
 : -3%, -3.4, -3, 1, 1.3, 3.4, 26
- COc1ccc(Cl)cc1/C=C1/C(=O)ON=C1C
 : ·, 6.7, -6, ·, -0.6, 2.5, -7
- Cc1ccc2nc(C)cc(Nc3ccc([N+](=O)[O-])cc3)c2c1
 : ·, -7.2, 16, 0, -2.8, 5.2, -9
- Cc1ccc(N(CC(O)CN2CCCCC2)S(=O)(=O)c2ccc(C)cc2)cc1 (centres undefined)
 : ·, 1.5, -4, -25, -3.9, 1.1, -1
- CC(OC(=O)c1ccc(F)c(S(=O)(=O)N2CCOCC2)c1)C(=O)NCC1CCCCC1 (centres undefined)
 : -4%, 0.8, 4, -2, ·, 2.5, ·
- CCCCCCn1ccc(=N)cc1
 : -3%, -3.1, -10, -3, -3.5, 0.0, ?
- C#CC1CN(Cc2ccccc2)CC(C#C)N1C (centres undefined)
 : -6%, -0.3, -6, ·, -0.1, 6.9, -8
- O=C(O)c1cc(-n2nnnc2SCc2ccccc2F)ccc1Cl
 : -2%, -8.2, -1, 1, 3.6, 1.9, -2
- COC(=O)CCc1c(C)nc(N)[nH]c1=O
 : -1%, 5.8, 1, 1, -1.7, -3.2, 3
- COCCOC(=O)/C(=C/c1ccc(OC(=O)c2ccccc2)cc1)C(C)=O
 : 10%, 2.2, 43*, 95*, 0.6, 0.3, -1
- COC(C(=O)Nc1ccc(F)c(F)c1)c1ccccc1 (centres undefined)
 : 1%, 5.9, 2, -6, -0.5, -0.1, -8
- C#CC[N+](C)(C)CC#Cc1ccc(Cl)cc1
 : ·, -2.6, -6, -8, 1.4, -24, -24
- CCOCc1nnc(NC(=O)c2cc(C(=O)OC)cc([N+](=O)[O-])c2)s1
 : -2%, -2.0, -4, -1, 3.3, 1.9, 10
- c1ccc(-c2nc3c([nH]2)CCc2nonc2-3)cc1
 : -11%, 0.2, 0, -4, 7.6, -6.4, -4
- C=CCC[C@H](Cc1ccc(F)cc1)C(=O)OC[C@@H](C)NC(=O)[C@H](CC=C)CC(=O)N(CCO)Cc1ccccc1
 : 1%, ·, -3, -4, ·, 3.6, ·
- CC(=O)Nc1ccc(NC(=O)CCN2C(=O)C3CC=CCC3C2=O)cc1 (centres undefined)
 : -14%, 1.0, -2, -2, ·, -5.9, ·
- COc1ccccc1-c1sc2ccccc2c1-c1ccc2c(c1)OCO2
 : ·, -15, 1, -3, -1.3, -2.9, -10
- COc1ccccc1NS(=O)(=O)c1ccc2[nH]c(=O)[nH]c2c1
 : 8%, 5.9, 4, -8, 1.5, 3.0, -6
- CCOC(=O)CC(=O)CSc1ccc2nnc(-c3ccc(F)cc3)n2n1
 : 13%, 3.0, 1, 50, 4.3, -2.2, -5
- CC(=O)N1c2ccc(S(=O)(=O)N3CCC(C(=O)NC4CCC(C)CC4)CC3)cc2CC1C (centres undefined)
 : ·, 7.2, -8, -4, 4.9, -0.5, -4
- O=Cc1c(NCc2ccccc2F)c2ccccc2[nH]c1=O
 : 0%, -12, -4, -9, 0.0, -3.0, -24
- O=C(N/N=C/C(Cl)=C/c1ccc([N+](=O)[O-])cc1)C(=O)Nc1cccc(C(=O)O)c1
 : 10%, -2.2, 0, 30, 1.8, -0.5, -4
- COc1cc(C2NC(=O)NC(C)=C2C(=O)OCC2CCCO2)ccc1O (centres undefined)
 : 69%, 5.5, 2, 25, -0.3, -4.4, 9
- COc1cc(NC(=O)COc2cc(O)c3c(c2)OC(C)(C)CC3=O)cc(OC)c1
 : ·, 2.6, 1, 3, ?, 1.7, 5
- O=C(O)C1CC=CCC1C(=O)Nc1ccccc1Cl (centres undefined)
 : 11%, -4.5, -2, -17, 1.5, -3.6, 2
- Cc1cccc(C(=O)Nc2cccc(C(=O)N/N=C/c3cccc(C)n3)c2)c1
 : -15%, -0.2, 9, -1, -4.4, -1.0, 0
- Brc1ccc(N=Nc2ccc3ccccc3n2)cc1
 : ·, -5.6, 19, -15, 4.4, -1.2, 5
- COc1ccc(NC(=O)CCC(=O)Nc2cc(OC)c(NC(=O)c3cccs3)cc2OC)cc1
 : ·, -3.5, -2, -1, -0.7, -0.4, 6
- CC(=O)c1cccc(S(=O)(=O)NC2CC2)c1
 : 8%, 3.8, 6, 0, -2.6, 1.7, -8
- O=C(NCc1cccc(Cl)c1)c1ccc2nc[nH]c2c1
 : 9%, -1.3, -5, 5, 3.8, 1.8, -4
- Cc1c(Cl)c([N+](=O)[O-])nn1Cc1ccc(C(=O)Nc2ccc(Cl)cn2)o1
 : 19%, -5.9, -2, 0, -0.7, -4.4, 0
- Fc1ccc(C2=NNC(=NCc3ccccc3)SC2)cc1F
 : 8%, ·, 3, ·, ·, 3.2, ·
- c1ccc(-c2cn3cccnc3n2)cc1
 : -3%, 2.1, -7, -11, 0.2, -2.3, 8
- O=C(CN1CCN(c2ccccn2)CC1)Nc1ccc2ccccc2c1
 : -1%, 4.5, 1, ·, -0.7, 1.9, -1
- CC(C)C(=O)Nc1c(C(=O)N2CCN(c3ncccn3)CC2)oc2ccccc12
 : ·, -6.1, -2, 1, 5.7, 1.8, 45
- COc1ccc(/C=N\NC(=O)c2ccc([N+](=O)[O-])c(C)c2)cc1COc1ccccc1C(N)=O
 : 5%, 2.0, 4, -2, 4.1, 11, -2
- Cc1cccc2cc(CN(C(=O)c3cccc([N+](=O)[O-])c3)C(C)C)c(=O)[nH]c12
 : 8%, -0.4, -3, -12, -1.4, -2.8, 4
- Cc1ccc(NC(=S)NCCCN2CCOCC2)cc1
 : -6%, 0.3, -1, 39, 2.7, -1.4, 20
- O=C1CCCN1C(=O)CSc1nnnn1-c1cccc(F)c1
 : -8%, -1.1, -3, 5, ·, 3.3, ·
- Cc1ccccc1OCCC(=O)N(CC(C)C)c1c(N)n(Cc2ccccc2)c(=O)[nH]c1=O
 : 7%, -1.6, -3, 0, ·, 1.2, ·
- CN(C)C(CNS(=O)(=O)c1cc([N+](=O)[O-])ccc1Cl)c1ccco1 (centres undefined)
 : 18%, 3.3, 2, -22, ·, -2.9, ·
- CN1CCN(Cc2c(O)ccc3c(-c4ccccc4)cc(=O)oc23)CC1
 : 2%, -3.0, 9, -1, -1.8, 0.8, 2
- Cc1ccc(C(=O)N/N=C\c2ccc(OC(=O)c3cccs3)cc2)cn1
 : ·, -4.1, 7, 74, -1.7, 1.6, -20
- O=C(NCc1ccccc1)C1=C[C@@H](c2csc3ccccc23)C[C@@H](OCc2ccc(CO)cc2)O1
 : 10%, 0.8, 2, 5, 2.0, -5.8, -8
- Nc1c(C(=O)O)nnn1Cc1ccccc1
 : 19%, 5.7, -3, -21, -1.1, 6.3, 9
- COc1cccc(C(=O)Nc2nnc(C3CCCO3)s2)c1 (centres undefined)
 : 1%, -0.5, 1, -13, -0.8, 1.0, -1
- O=C(NC1CCN(Cc2ccccc2)CC1)C(NS(=O)(=O)c1cccc2nsnc12)c1ccccc1 (centres undefined)
 : -10%, -2.6, -5, -4, 5.4, 1.7, -12
- CC(C)COc1ccc(-c2nnc(-c3ccco3)o2)cc1
 : 13%, -0.9, -5, 4, 1.9, 3.5, 19
- Cn1c(SCc2nc3ccccc3[nH]2)nnc1-c1cccnc1
 : 4%, 0.5, 12, -10, -1.3, -0.2, -18
- CCOc1ccc(NC(=O)c2ccc(NC(=S)NC3CCCCC3)cc2)cc1
 : ·, 3.0, 5, -2, -0.3, 1.2, 7
- O=C(COc1ccc(Cl)cc1)N/N=C/CCc1ccccc1
 : 1%, -2.5, -2, 6, -5.0, 0.1, -23
- C#CCOc1ccc(Br)cc1C(c1c(C)[nH][nH]c1=O)c1c(C)[nH][nH]c1=O
 : 0%, -2.0, -5, 11, -4.0, -1.2, 20
- COc1cccc(-n2c(N)c(C(=O)Nc3c(C)n(C)n(-c4ccccc4)c3=O)c3nc4ccccc4nc32)c1
 : -3%, 3.9, 66*, -8, -3.9, -7.6, 35
- Cc1ccccc1CN1CCN(CC(=O)NCc2ccccc2)CC1
 : 1%, 21*, 13, -30, -0.9, 1.7, -8
- Cc1cccc(-n2ncc3c2CCCC3NC(=O)c2ccc[n+]([O-])c2)c1C (centres undefined)
 : ·, 4.0, -4, 2, 2.1, 4.4, 4

(more compounds)
Values run as follows: Vif A3G, LANA-H2A inh, Beta2AR agonist, ALR H2O2 inh, RanGTP-Imp inh, HNF4A DNA FP, Calb FLC
- CN1CCN(C(=O)c2ccc(-c3ccccc3)cc2)CC1
 : -8%, 7.6, -1, -14, 7.5, -0.6, -1
- O=C(COc1ccc(Br)cc1)NCCNC(=O)c1ccccn1
 : 2%, 0.9, -4, -3, ?, 4.8, 9
- Cc1ccc2nc(-c3ccc(NC(=O)CN4CCN(c5ccccn5)CC4)cc3)sc2c1
 : -3%, 1.5, -3, ·, 9.1, -4.2, -8
- CC(=O)Nc1ccc(C(=O)Nc2ccc(S(=O)(=O)N3CCCCC3)cc2)cc1
 : -5%, 0.1, -2, -11, -0.4, 2.4, -3
- CC(NCC1(N2CCOCC2)CCCCC1)C(=O)N1CCc2ccccc21 (centres undefined)
 : -8%, 3.8, -1, -9, 0.6, 3.2, -3
- CCC(C)NS(=O)(=O)c1ccc(NC(=O)CCC2CCCCC2)cc1 (centres undefined)
 : 5%, 2.8, 5, -8, 5.7, -2.0, 3
- CC(C)(C)c1nc(SCC(=O)Nc2nc3c(s2)CCCC3)c2ccccc2n1
 : -6%, -3.4, -5, -37, 3.5, 4.1, -7
- COc1ccc(C(=O)N2CC3(CC(c4cccc(NC(=O)COc5ccc(Cl)cc5)c4)=NO3)C[C@@H]2C(N)=O)cc1 (some centres undefined)
 : 5%, 2.6, -1, -10, 3.7, 4.2, -6

2 of these compounds in another layout.
Molecule: CC(=O)Nc1ccc(C(=O)Nc2ccc(S(=O)(=O)N3CCCCC3)cc2)cc1
  Vif A3G: -5%; LANA-H2A inh: 0.1; Beta2AR agonist: -2; ALR H2O2 inh: -11; RanGTP-Imp inh: -0.4; HNF4A DNA FP: 2.4; Calb FLC: -3

Molecule: Cc1ccc2nc(-c3ccc(NC(=O)CN4CCN(c5ccccn5)CC4)cc3)sc2c1
  Vif A3G: -3%; LANA-H2A inh: 1.5; Beta2AR agonist: -3; ALR H2O2 inh: ·; RanGTP-Imp inh: 9.1; HNF4A DNA FP: -4.2; Calb FLC: -8
